Hsc70: Hsc70 inhibitors, probe displacement, primary screen, biochemical, fluorescence polarization (AID 568). Hsc70 fluorescence polarization, probe displacement; higher % means a stronger effect; strong numbers were not always called active. displacement, % at 20 µM, or IC50 in µM where a hit was titrated. 83,000 tested, under 10 active;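 active = displacement above 50% without optical interference and an IC50 on retest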;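 also: ATPase domain with a fluorescein-tagged ATP probe; 0% = vehicle and 100% = excess ADP; read after one hour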
WNV protease inh: blocks West Nile virus NS2B-NS3 protease activity; P06935; WNV NS2B-NS3 protease, fluorogenic substrate Ex360/Em465; stronger effect = lower value; z-score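 (tested at a level between 10 and 100 µM)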; 0.18% of 65,000 active; AID 577;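 active = z-score at -3 or under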;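 also: score is relative to mean and spread of the compound wells of a plate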
Target sequence (P06935 1371-1501 limits assumed): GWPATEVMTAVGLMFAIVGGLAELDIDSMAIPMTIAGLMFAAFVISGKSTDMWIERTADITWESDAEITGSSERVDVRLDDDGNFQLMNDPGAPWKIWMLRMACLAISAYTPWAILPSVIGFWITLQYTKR
Target sequence (P06935 1502-1679 limits assumed): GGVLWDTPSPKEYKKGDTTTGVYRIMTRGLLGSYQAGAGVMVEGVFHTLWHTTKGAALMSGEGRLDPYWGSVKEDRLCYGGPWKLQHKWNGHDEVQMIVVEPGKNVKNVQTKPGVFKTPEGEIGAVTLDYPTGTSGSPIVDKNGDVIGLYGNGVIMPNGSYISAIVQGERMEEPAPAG
MT1-MMP reporter: inhibitors of MT1-MMP promoter transcription, cell-based, luciferase reporter, luminescence (AID 618). MT1-MMP promoter luciferase reporter cells, luminescence. calls from a first round at 10 µM; hits with a dose series show EC50 in µM. 0.62% of 87,000 active;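 active = over half of the reporter light lost at 10 µM or EC50 under 50 µM; inactive = the rest and hits that failed the dose series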;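 also: actives suppress MT1-MMP promoter-driven transcription so potencies describe inhibitors; HT1080 fibrosarcoma cells; overnight exposure; toxic or luciferase-blocking compounds were not removed from the actives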
* = called active by the depositor; i = inactive; . = not tested or not shown.

Fields – Hsc70 | WNV protease inh | MT1-MMP reporter
> C=CCSC1=N/C(=C\c2cc(OC)c3c(c2)OCO3)C(=O)S1
→ 83.2% | -1.19 | i
> CN(C)CCNC(=O)c1ccc(COc2ccc(Cl)cc2Cl)cc1
→ 2.2% | . | i
> O=C(Nc1ccc(Cl)cc1)C1=Cc2ccccc2OC1
→ 1.8% | . | i
> O=C(CCSc1nnc(-c2ccncc2)o1)Nc1ccc(Cl)cc1
→ -2.4% | -1.91 | i
> CCn1cc(C(=O)O)c(=O)c2cc(OC)ccc21
→ -1.3% | 0.29 | i
> CCOC(=O)CN(C(=O)CNC(=O)c1ccco1)C(C(=O)NC1CCCCC1)c1cccs1 (stereo not given)
→ -1.7% | . | i
> CC1(c2ccc3c(c2)OCO3)NC(=O)N(CC(=O)NCCC2=CCCCC2)C1=O (stereo not given)
→ -1.4% | 1.2 | i
> CCn1c(SCC(=O)C(C)(C)C)nnc1-c1cccnc1
→ -1.9% | -1.3 | i
> CCN(CCCNC(=O)C1CCC(=O)N1Cc1ccc(F)cc1)c1cccc(C)c1 (stereo not given)
→ 5.3% | -0.23 | i
> COc1cccc(NC(=O)c2ccc(CN3CCN(c4ccccc4)CC3)cc2)c1
→ -3.7% | -0.83 | i
> O=C(N/N=C/C(Br)=C\c1ccccc1)c1n[nH]c2c1CCC2
→ -1.3% | . | i
> CCCCn1ccnc1C(=O)c1cc(S(=O)(=O)N2CCOCC2)ccc1C
→ 2.4% | . | i
> c1ccc2[nH]c(CSc3nc4ccccc4o3)nc2c1
→ -0.1% | -1.66 | i
> COc1ccccc1-c1nn2c(-c3ccco3)nnc2s1
→ -2.6% | -0.34 | i
> CCC1(CC)C(=O)NN(c2ccccc2)C1=O
→ -3.2% | . | i
> COc1cccc(OC)c1NC(=O)Cc1nn(C)c(=O)c2ccccc12
→ -0.4% | 0.07 | i
> Cc1c(CNCc2cccs2)c(C(=O)O)c(C)n1Cc1ccccc1
→ 5.6% | -1.03 | i
> CC1=CC(=C2C(=O)c3ccccc3C2=O)C=C(C)N1Cc1ccco1
→ 1.9% | 0.67 | i
> CCC(=O)Nc1ccc(C(=O)c2ccccc2)cc1
→ 6.9% | -1.11 | i
> CC(C)(C)NC(=O)C(c1ccco1)N(Cc1ccc(F)cc1)C(=O)c1snc(C(N)=O)c1N (stereo not given)
→ 3.1% | 1.02 | i
> CCCOc1ccc(-c2nc(C#N)c(N3CCC(C(N)=O)CC3)o2)cc1
→ 5.5% | . | i
> CCc1c(C(=O)N2CCOCC2)csc1C
→ 1.5% | 0.29 | i
> CC(C)CCNC(=O)Cn1cc2c(n1)CCCCC2
→ 3.0% | -0.31 | i
> Cc1cn(C2CC3OCC3O2)c(=O)[nH]c1=O (stereo not given)
→ 3.6% | -0.02 | i
> N#CCc1ccc(NS(=O)(=O)c2cccs2)cc1
→ 6.6% | -0.1 | i
> CCn1c(CNC(=O)COc2ccc(C(C)C)cc2)nnc1SCC(=O)NC1CCCCC1C (stereo not given)
→ -1.1% | . | i
> CCOC(=O)CSc1nc2ccccc2n1CC(=O)NC(C)(C)C
→ -5.8% | -0.71 | i
> CN(C)CCNc1oc(COc2cccc(Cl)c2)nc1C#N
→ 8.0% | 0.89 | i
> COc1cc(C2C(C#N)=C(N)Oc3n[nH]c(C)c32)cc2c1OCO2 (stereo not given)
→ -4.7% | 1.76 | i
> N#Cc1ccc(COC(=O)CSc2nnc(C3CCCCC3)n2N)cc1
→ -0.5% | 1.25 | i
> O=C(Cc1ccccc1)Nc1ccccc1N1CCN(c2ccccc2)CC1
→ -9.4% | 0.09 | i
> Cn1cc(Br)c(C(=O)NC2C3CC4CC(C3)CC2C4)n1 (stereo not given)
→ 1.7% | . | i
> O=C(O)c1cc2c(s1)CCCC2
→ -0.1% | 0.48 | i
> Cc1cc(=O)n2[nH]c(SCc3ccccc3)nc2n1
→ -1.2% | . | i
> Brc1ccc(-c2csc(NNC3=NCCCCC3)n2)cc1
→ 2.5% | . | i
> COc1ccc(S(=O)(=O)NC(C)C(=O)O)cc1 (stereo not given)
→ 3.8% | . | i
> COc1cc(C(=O)NCc2nnc(SCC(=O)N3CCc4ccccc43)o2)cc(OC)c1OC
→ -3.1% | 2.23 | i
> O=C(NCCCN=C1NS(=O)(=O)c2ccccc21)c1ccc(S(=O)(=O)N2CCCCC2)cc1
→ -6.5% | -0.95 | i
> COc1ccc(-c2nc3oc4cc(OC)ccc4c(=O)c3c(=O)n2Cc2ccco2)cc1
→ -6.1% | -0.39 | i
> CCCc1nnc(NC(=O)c2cccc(OC)c2)s1
→ -13.4% | 0.54 | i
> C=CCn1c(SCC(=O)Nc2c(C)n(C)n(-c3ccccc3)c2=O)nc2sc(C)c(-c3ccccc3)c2c1=O
→ -1.1% | . | i
> COC(=O)C1CCN(c2cc(=O)n(-c3ccc(OC)cc3)c(=O)[nH]2)CC1
→ 4.8% | -0.08 | i
> COc1ccc(C(=O)OCn2nnc3ccccc3c2=O)cc1OC
→ 5.3% | -0.44 | i
> CCOc1ccc(C2c3c(oc4ccccc4c3=O)C(=O)N2CCCN2CCOCC2)cc1OCC (stereo not given)
→ 8.8% | -1.09 | i
> O=c1[nH]c2sc3c(c2c2nncn12)CCCC3
→ 12.2% | 1.22 | i
> CC1CC(C)CN(CCCNC(=O)c2ccc3c(c2)NC(=O)C(N2CCCCC2)S3)C1 (stereo not given)
→ -6.2% | 1 | i
> COCc1cc(C)nc2sc3c(=O)oc(C)nc3c12
→ 3.2% | 0.00508 | i
> COC(=O)CN(Cc1ccco1)S(=O)(=O)c1ccccc1
→ -0.1% | 0.00701 | i
> CN(c1ccc(C(=O)NCCC2=CCCCC2)cc1)S(C)(=O)=O
→ -0.9% | 0.05 | i
> Cc1cc(=O)n2nc(N3CCCC(C(=O)NCc4ccco4)C3)sc2n1 (stereo not given)
→ 5.0% | -0.6 | i
> Nc1nc2n(n1)C(c1ccccc1Cl)CC(c1ccc(F)cc1)N2 (stereo not given)
→ 5.9% | -1.28 | i
> O=C(NCc1ccc2c(c1)OCO2)c1nn2cccnc2c1Cl
→ 6.3% | -0.74 | i
> O=S(=O)(c1cccc(-c2nn3c(-c4ccncc4)nnc3s2)c1)N1CCOCC1
→ -2.6% | -0.77 | i
> CCOC(=O)c1ccc(NS(=O)(=O)c2ccc(SC)cc2)cc1
→ 6.0% | 0.4 | i
> COc1ccc(-c2ccc(-c3nnn(CC(C)=O)n3)cc2)cc1
→ -2.8% | 0.32 | i
> COc1cccc(-n2c(C)nnc2SCC#N)c1
→ -1.0% | 0.96 | i
> CCCc1cc(C(=O)Cc2ccc(F)cc2)c(O)cc1O
→ -0.9% | -1.01 | i
> CS(=O)(=O)N(Cc1ccccc1)c1ccc(C(=O)Nc2ccc3c(c2)OCO3)cc1
→ 1.1% | . | i
> COCCCNC(=O)c1ccc2c(c1)CCN2S(C)(=O)=O
→ 0.7% | . | i
> CCOC(=O)N1CCC(N2CC34C=CC(O3)C(C(=O)Nc3ccc(OCC)cc3)C4C2=O)CC1 (stereo not given)
→ 1.1% | 1.02 | i

The listing continues.
Fields – Hsc70 | WNV protease inh | MT1-MMP reporter
> N=c1sccn1CC(=O)Nc1ccc2c(c1)CCC2
→ 2.6% | 0.19 | i
> CCNc1nc(NC(C)C)nc(N(C#N)CCOc2ccc(Cl)cc2Cl)n1
→ -0.2% | -0.45 | i
> CC(=O)n1cc(C2C(=O)CC(C)(C)CC2=O)c2ccccc21
→ 3.4% | 0.61 | i
> CCOC(=O)c1sc2nc3n(c(=O)c2c1C)CCC(C)CC3 (stereo not given)
→ -2.6% | 0.92 | i
> CCOC(=O)C(NC(C)=O)(N1CCOCC1)C(F)(F)F (stereo not given)
→ -7.1% | -1.02 | i
> COC(=O)[C@H](C)NC(=O)Nc1cccc(C(F)(F)F)c1
→ 0.4% | 0.75 | i
> O=C(C1CC1)N1CCc2cc(S(=O)(=O)N(CCO)Cc3ccccc3)ccc21
→ -1.0% | -0.34 | i
> COc1ccc(N2CC(C(=O)Nc3ccc(F)cc3F)CC2=O)cc1 (stereo not given)
→ -1.2% | 0.35 | i
> COc1cc2c(cc1OC)C(c1ccc(-c3cc(Cl)ccc3Cl)o1)=NCC2
→ 0.3% | . | i
> O=C(COc1ccccc1)N1CCN(c2nnc(-c3ccccc3)c3ccccc23)CC1
→ -2.5% | -0.31 | i
> O=C(NC1CCCCC1)C(c1cccnc1)N(C(=O)c1csnn1)C1CCCC1 (stereo not given)
→ 3.4% | . | i
> Cc1ccc(S(=O)(=O)CC(C)N2CCOCC2)c(S(=O)(=O)CC(C)N2CCOCC2)c1 (stereo not given)
→ 3.5% | 0.99 | i
> CCN(CC)S(=O)(=O)c1cccc(C(=O)Nc2cccnc2)c1
→ 4.9% | -0.1 | i
> c1cnc(N2CCN(Cc3c[nH]c4ccccc34)CC2)nc1
→ 3.1% | 0.85 | i
> COCC(C)NC(=O)c1ccc(N(C)C)cc1 (stereo not given)
→ -1.7% | 2.47 | i
> CCCn1nc(C(=O)N2CCc3ccccc3C2)c2ccccc2c1=O
→ -1.1% | . | i
> O=C(Nc1ccc(NC(=O)C2CC2)nc1)c1cccc(F)c1
→ -13.0% | 1.68 | i
> CCOc1ccccc1C(=O)NCCC(=O)O
→ 0.7% | -0.38 | i
> CCOC(=O)c1cc(C)sc1N1C(=O)C2C3C=CC(C3)C2C1=O (stereo not given)
→ -3.5% | -0.94 | i
> COc1ccc(/C(O)=C/C(=O)C(=O)NNC(=O)C(O)(c2ccccc2)c2ccccc2)cc1
→ 3.0% | . | i
> O=C1N=C(N2CCCC2)S/C1=C\c1cccc(Br)c1
→ 0.6% | . | i
> CCCCCCSc1nnc(-c2cnn(-c3ccccc3)c2-n2cccc2)n1C
→ -1.1% | . | i
> Cc1ccc(-c2nn3nnnc3c3ccccc23)cc1
→ 2.5% | -0.25 | i
> CN(C)c1nc(OCCNC(=O)COc2ccc(Cl)cc2Cl)nc(N(C)C)n1
→ 1.2% | . | i
> COc1ccccc1C1C(C#N)=C(N)N(c2cccnc2)C2=C1C(=O)CC(C)(C)C2 (stereo not given)
→ 2.5% | . | i
> CCOCCCNS(=O)(=O)c1cc(Br)cc2c1N(C(=O)C1CC1)CC2
→ -3.7% | -0.84 | i
> COc1ccc(N2C(=O)C3CCCN3C2c2cccc(C)c2)cc1 (stereo not given)
→ -5.3% | 0.82 | i
> CCc1nn(-c2ccccc2)c2c1-c1cc(OC)c(OC)cc1C1(N2)C(=O)Nc2ccccc21 (stereo not given)
→ -2.2% | . | i
> COc1ccc(C2C(C(=O)Nc3cccnc3)=C(C)Nc3nc(-c4cccs4)nn32)cc1 (stereo not given)
→ 2.3% | . | i
> Cc1ccc(O/C=C2\OC(=O)c3ccccc32)cc1
→ -1.8% | . | i
> COc1cccc2sc(=NC(=O)c3ccc(S(=O)(=O)N4CCOCC4)cc3)n(C)c12
→ 0.1% | 0.33 | i
> COc1ccc(-c2ccc(Nc3ccc(S(=O)(=O)N4CCCC4)cc3)nn2)cc1OC
→ -1.6% | -0.56 | i
> CCC(C)NC(=O)C1c2ccccc2C(=O)N1Cc1ccccc1OC (stereo not given)
→ -4.3% | -0.85 | i
> Cc1ccc(OCc2nnc(SCC(=O)c3ccccc3)n2Cc2ccco2)cc1
→ -4.3% | 1.03 | i
> CC(C)(C)c1ccc(-c2nnc(SCC(=O)c3ccc4c(c3)OCCO4)o2)cc1
→ 2.7% | . | i
> CN(C)c1nc(SCC#N)nc(N(C)C)n1
→ 9.4% | 0.87 | i
> CO[C@@]1(NC(=O)CSCC#N)C(=O)N2C(C(=O)O)=C(CSc3nnnn3C)CS[C@@H]21
→ -2.8% | 0.05 | i
> COc1cccc(N2C(=O)Nc3ccccc3C2(O)C(=O)NCc2ccc3c(c2)OCO3)c1 (stereo not given)
→ 3.0% | 0.73 | i
> COc1ccc(C(CC(=O)O)NC(=O)c2ccccc2)cc1OC (stereo not given)
→ -8.9% | -0.38 | i
> CCCN1C2CCCC1CC(NC(=O)C1CCCCC1)C2 (stereo not given)
→ -0.4% | . | i
> CCCc1cc(=O)[nH]c(Nc2ccc(OC)c(Cl)c2)n1
→ -1.8% | -1.47 | i
> CCCn1c(CN2CCCCC2CC)nc2c1c(=O)n(C)c(=O)n2C (stereo not given)
→ 4.2% | -0.11 | i
> O=C(CCC(=O)N(c1ccc(F)cc1)C(C(=O)NC1CCCC1)c1ccncc1)Nc1cccnc1 (stereo not given)
→ 2.5% | . | i
> CCOC(=O)c1sc2nc(CC(=O)OC)nc(N3CCN(c4ccc(OC)cc4)CC3)c2c1C
→ 0.8% | . | i
> CC1CN(C(=O)c2ccc(C(=O)c3ccccc3)cc2)CC(C)O1 (stereo not given)
→ 3.2% | -0.36 | i
> CCN(CCCNC(=O)c1c(C)cc(=O)oc1C)c1ccccc1
→ 1.9% | -0.5 | i
> O=C(OCC(=O)N1CCN(C(=O)c2ccco2)CC1)c1cc(-c2ccc(Cl)c(Cl)c2Cl)nc2ccccc12
→ 1.7% | . | i
> COCCN1Cc2cccc(C(=O)Nc3ccc(C)c(C)c3)c2C1=O
→ -3.6% | -0.65 | i

Entries shown so far containing bromine (5):
Fields – Hsc70 | WNV protease inh | MT1-MMP reporter
> O=C(N/N=C/C(Br)=C\c1ccccc1)c1n[nH]c2c1CCC2
→ -1.3% | . | i
> Cn1cc(Br)c(C(=O)NC2C3CC4CC(C3)CC2C4)n1 (stereo not given)
→ 1.7% | . | i
> Brc1ccc(-c2csc(NNC3=NCCCCC3)n2)cc1
→ 2.5% | . | i
> O=C1N=C(N2CCCC2)S/C1=C\c1cccc(Br)c1
→ 0.6% | . | i
> CCOCCCNS(=O)(=O)c1cc(Br)cc2c1N(C(=O)C1CC1)CC2
→ -3.7% | -0.84 | i

High-throughput results (PubChem)
